miR-21 reporter = miR-21 reporter, rising signal. 340,000 tested, under 10 active. Potency, µM (doses to about 38.3 µM), for the others: at the highest dose reporter change, positive = more light. AID 2288. HeLa miR-21 FLuc reporter, luciferase, 48 h; active = well fitted rising curve with a large enough effect; inconclusive = small, poorly fitted or top-dose-only effect; inactive = no such curve, though single readings can be large or run the other way;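 also: % of control where 0% means no effect; miR-21 action dims this reporter so a rising signal means less miR-21 action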
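Luminescence from a firefly luciferase reporter carrying a miR-21 binding site downstream, stably expressed under a CMV promoter in HeLa cells that make miR-21 endogenously, reports miRNA modulation after 48 h compound exposure up to approximately 40uM final.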
Rango dissoc inh = inhibitors of RanGTP-induced Rango-importin beta complex dissociation; O95149+P62826; Biochemical FRET Rango-importin beta, RanGTP-induced dissociation; Potency, µM (doses to about 46.1 µM), inactives show at the highest dose activity change, negative = inhibition; 340,000 tested, 0.071% active; AID 540253; active means falling FRET ratio curve, often poorly fitted, with flat reads before Ran was added; inconclusive means other falling curves, or compound fluorescence or quenching; inactive means flat or rising ratio curve;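 also: potency is read from the fitted curve at half-maximal effect; % of control where 0% means no effect; nearly all actives have a fitted effect of over 45% in size; -100% = wells without RanGTP and RCC1; the record marks most hits as doubtful in a second field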
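Two FRET readings bracket the reaction: one 5 min after compound meets Rango–importin beta, another 45 min after RanGTP-RCC1 (0.6 uM Ran, 0.2 uM RCC1, 2 mM GTP) is added. Only the second defines inhibition.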
GLA inh pH 4.5 = inhibitors of human alpha-galactosidase A at pH 4.5; P06280; purified enzyme, 4-MU-alpha-Gal fluorescence, pH 4.5; activity change, negative = inhibition, % at 105 µM; 230,000 tested, under 10 active; inconclusive = small, poorly fitted or top-dose-only inhibition, or a rising curve; inactive = flat fitted curve, though single readings scatter; no compound was filed as active;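 also: 0% = full activity with enzyme and -100% = basal without enzyme; dose as in the result columns while the protocol names 77 µM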
Target sequence (P06280 whole entry, looked up): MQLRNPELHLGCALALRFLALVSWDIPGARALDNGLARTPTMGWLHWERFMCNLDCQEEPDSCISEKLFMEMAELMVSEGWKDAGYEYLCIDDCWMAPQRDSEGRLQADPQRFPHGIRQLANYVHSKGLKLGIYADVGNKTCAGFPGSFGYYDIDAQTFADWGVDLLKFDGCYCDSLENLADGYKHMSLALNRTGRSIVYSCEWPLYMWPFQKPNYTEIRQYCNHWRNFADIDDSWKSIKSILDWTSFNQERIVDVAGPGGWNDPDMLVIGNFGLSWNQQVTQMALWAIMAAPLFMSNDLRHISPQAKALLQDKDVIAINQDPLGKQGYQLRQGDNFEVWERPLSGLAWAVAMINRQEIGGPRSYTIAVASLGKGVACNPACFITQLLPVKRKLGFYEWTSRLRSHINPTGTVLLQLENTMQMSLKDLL
Rango complex inh = inhibitors of Rango-importin beta complex formation; Rango CFP/YFP FRET sensor + importin beta, 45 min; Potency, µM (doses to about 92.2 µM), for inactives: at the top dose inhibition of complex formation; Q14974; AID 540263; 340,000 tested, 0.031% active; active = rising FRET ratio curve, often small or poorly fitted; inconclusive = mostly compound fluorescence or quenching in the first reads; inactive = flat curves in all reads;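 also: potency is read from the fitted curve at half-maximal effect; 0% = DMSO wells and 100% = buffer wells lacking importin beta; nearly all actives have a fitted effect of over 15% in size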
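Inhibition scored from the CFP 486 nm/YFP 530 nm FRET ratio 45 min after adding 0.125 microM importin beta to 50 nM Rango biosensor preincubated 5 min with compound (room temperature, PBS with DTT, Tween-20, BSA). No-importin wells as positive control.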
The depositor's hits bear a star; u = inconclusive; x = not tested or not shown; & = joins results of further samples. Not all compounds are listed (hit frequency here may not be typical).

miR-21 reporter,Rango dissoc inh,GLA inh pH 4.5,Rango complex inh,Structure
11.2%,-6.1%,x,5.5%,COc1ccc(NC(=O)C2=CC(c3ccc(C)cc3)=NS(=O)(=O)N2C)cc1
5.3%&8.2%,0.5%,x,0.5%,O=C(NCCN1CCN(c2ccccc2)CC1)Nc1cccc(Br)c1
-0.5%,8.0%,x,-0.7%,COc1ccc(CNC(=O)C2CCCN(S(=O)(=O)N3CCC(C)CC3)C2)c(OC)c1 (centres undefined)
-3.6%,1.8%,-5.6,4.0%,S=C(Nc1cccc(Cl)c1Cl)N1CCC2(CC1)OCCO2
-4.5%,8.3%,4.7,2.5%,O=C(NCC1c2ccccc2CCN1C(=O)CN1C(=O)c2ccccc2C1=O)C1CCCCC1 (centres undefined)
x,0.2%,x,0.6%,CCOCCn1c(=O)c2c(nc3n2CCN3c2ccc(CC)cc2)n(C)c1=O
-1.5%,-2.0%,x,-3.7%,O=C(N/N=C/c1ccccn1)c1cc(C2CC2)nc2ccccc12
7.8%,u,-3.7,3.3%,Cc1nn(C)c(C)c1/C=C/C(=O)c1ccc(Cl)cc1Cl
x,-10.0%,x,5.2%,O=C(CCCSCCCC(=O)NN=Cc1ccccc1)NN=Cc1ccccc1
-5.5%,19.6%,-13.7,4.0%,O=C(CCS(=O)(=O)c1ccccc1)Nc1ccccc1-c1nc2ccccc2s1
-25.0%,0.7%,x,-0.1%,CC(=O)Nc1ccc(C(=O)NCC2CCCCC2)cc1
-3.6%,-1.1%,4.6,-0.2%,Cc1noc(C)c1COC(=O)c1ccccc1Oc1ccccc1

Overlap with the part before: 3 compounds, followed by the next part.
miR-21 reporter,Rango dissoc inh,GLA inh pH 4.5,Rango complex inh,Structure
-5.5%,19.6%,-13.7,4.0%,O=C(CCS(=O)(=O)c1ccccc1)Nc1ccccc1-c1nc2ccccc2s1
-25.0%,0.7%,x,-0.1%,CC(=O)Nc1ccc(C(=O)NCC2CCCCC2)cc1
-3.6%,-1.1%,4.6,-0.2%,Cc1noc(C)c1COC(=O)c1ccccc1Oc1ccccc1
-2.1%,21.1%,-7.2,-0.5%,CC1CCCCN1C(=O)N[C@@H](Cc1ccccc1)C(=O)O (some centres undefined)
-9.6%,2.7%,3.5,-7.1%,COc1ccc(Nc2ncccc2C(=O)Nc2ccccc2)cc1
x,1.6%,x,1.4%,O=c1oc(CCCO)cc2ccc(C#Cc3cccnc3)cc12
0.1%,-13.4%,-7.8,0.0%,COc1cccc(/C=N/Nc2nccnc2Cl)c1O
-2.5%,13.1%,1.7,0.0%,CCOc1ccc(OCCC(=O)Nc2ccc(F)cc2C)cc1
14.6%,4.0%,-10.1,0.0%,COC(=O)N/N=C/c1cn(Cc2c(Cl)cccc2Cl)c2ccccc12
-20.4%,19.7%,-0.9,1.2%,Cc1ccc(CC(=O)Nc2cccc([N+](=O)[O-])c2)cc1
x,u,x,4.0%,CC(C)CN(C(=O)CSc1nnc2ccccn12)C1CCS(=O)(=O)C1 (centres undefined)
8.0%,4.7%,-0.1,-1.5%,O=C(Nc1nc(-c2ccc(Cl)cc2Cl)cs1)c1ccc(OCC2CCCO2)cc1 (centres undefined)
-10.9%,3.6%,x,-1.5%,O=C(N/N=C/c1ccc(Cl)cc1)c1ccc2c(c1)OCO2
-23.4%,1.0%,10.5,-4.8%,COC(=O)Cc1ccc(NC(=S)Nc2ccccn2)cc1
x,11.8%,x,-1.3%,Cc1ccc(C(C)C)c(OCC(=O)NNC(=O)Cn2[nH]c(=O)c3ccccc3c2=O)c1
-9.1%,-0.1%,x,0.0%,Cc1ccc(C)c(OC(C)C(=O)Nc2nccs2)c1 (centres undefined)
-4.7%,-10.8%,2.3,-5.1%,CC(C)n1c(CCCO)nc2ccccc21
2.4%,-11.8%,-0.7,-0.5%,Cc1ccccc1C(=O)NC(=S)N(C)CCc1ccccn1
-6.9%,25.7%,0.0,0.3%,O=c1cc(CSc2ccc(Cl)cc2)nc(N2CCOCC2)[nH]1
-10.5%,-8.4%,x,-0.3%,CN(Cc1ccc(Cl)cc1Cl)C(=O)CNC(=O)c1ccco1
26.8%,u,-29.6,u,Oc1c(Br)cc(Br)cc1/C=N/NC(=S)N[C@H]1CC2C=CC1C2 (some centres undefined)
-2.1%,4.6%,x,-0.5%,CC(=O)Oc1ccc(C(=O)NCc2ccco2)cc1
-22.5%,17.1%,-0.2,-2.2%,C/C(=N\NC(=O)c1cccc(Cl)c1)c1cccc(NC(=O)C(C)C)c1
-6.9%,-6.4%,-2.7,-0.4%,CCOC(=O)c1c(C)oc2c(CN3CCN(C)CC3)c(Br)c(OC)c(O)c12
x,22.1%,x,-3.1%,CCOc1ccc(S(=O)(=O)NCCC(=O)NCC(c2ccc(OC)cc2)N2CCCCC2)cc1 (centres undefined)
4.1%,0.5%,x,-2.2%,CCN1C(=O)C(=Cc2cccc(OC)c2Oc2ccc([N+](=O)[O-])cc2[N+](=O)[O-])SC1=S
1.6%,-0.4%,-1.0,u,CCc1ccc(C(C)NC(=O)c2cc(C)oc2C)cc1 (centres undefined)

Another view of some results above.
Molecule	miR-21 reporter	Rango dissoc inh	GLA inh pH 4.5	Rango complex inh
CCOc1ccc(S(=O)(=O)NCCC(=O)NCC(c2ccc(OC)cc2)N2CCCCC2)cc1 (centres undefined)	x	22.1%	x	-3.1%
O=C(CCCSCCCC(=O)NN=Cc1ccccc1)NN=Cc1ccccc1	x	-10.0%	x	5.2%

The list continues.
miR-21 reporter,Rango dissoc inh,GLA inh pH 4.5,Rango complex inh,Structure
-1.4%,-10.8%,-7.2,0.7%,O=C(Nc1ccc(S(=O)(=O)Nc2nccs2)cc1)c1cc(-c2ccccc2Cl)nc2ccccc12
-32.9%,-7.3%,-2.1,-3.9%,N#C/C(=C\c1ccco1)C(=O)NCC1CCCO1 (centres undefined)
-7.5%,1.6%,7.5,-2.5%,O=C(OCc1cccc(F)c1)c1ccc2c(c1)-c1ccccc1C2=O
1.5%,1.8%,-19.8,-3.1%,Cc1nnc(SCC(=O)N2CC(=O)Nc3ccccc32)n1C
-16.9%,4.6%,2.7,u,CCOC(=O)C(C)n1cnc2c(nnn2-c2ccc(C)cc2)c1=O (centres undefined)
8.5%,-10.8%,6.0,2.8%,CCOC(=O)c1[nH]c(C)c(C(=O)Nc2cc(Cl)ccc2C)c1C
-4.7%,1.6%,8.8,2.1%,COc1ccc(OC)c(Nc2nc(=O)c3cccnc3s2)c1
x,-3.9%,x,0.8%,COC(=O)C1=C2c3[nH]c4ccccc4c3CCN2C(=O)CC1
x,-16.8%,x,0.0%,O=S(=O)(Nc1cc(S(=O)(=O)N2CCCC2)ccc1O)c1ccc(Cl)s1
-4.4%,-23.4%,x,-0.9%,COc1ccc(/C=C2\SC(N)=NC2=O)cc1Cl
-6.0%,8.3%,-2.4,2.6%,C=CCn1c(SCC(=O)Nc2cc(C)cc(C)c2)nnc1-c1cnccn1
4.2%,-6.8%,x,-0.3%,O=C(Nc1ccc(Cl)cc1F)C1CCN(S(=O)(=O)c2cccc3nonc23)CC1

Looked up above:
O=S(=O)(Nc1cc(S(=O)(=O)N2CCCC2)ccc1O)c1ccc(Cl)s1 | Rango complex inh = 0.0%
O=C(Nc1ccc(Cl)cc1F)C1CCN(S(=O)(=O)c2cccc3nonc23)CC1 | Rango complex inh = -0.3%
CCOC(=O)C(C)n1cnc2c(nnn2-c2ccc(C)cc2)c1=O (centres undefined) | Rango dissoc inh = 4.6%

(more compounds)
miR-21 reporter,Rango dissoc inh,GLA inh pH 4.5,Rango complex inh,Structure
0.6%,-3.8%,0.6,-0.2%,CC1CCC(NC(=O)C2(C)CCC(=O)N2Cc2cccnc2)CC1 (centres undefined)
6.9%,-7.1%,-11.3,3.1%,CC(=O)N(CCC(Cc1ccccc1)c1ccco1)Cc1ccco1 (centres undefined)
0.1%,0.2%,x,-0.6%,CC1CCCN(C(=O)CSc2nnc(-c3ccco3)n2C)C1 (centres undefined)
u,8.3%,-3.4,0.6%,CC(NCC(O)COCCC12CC3CC(CC(C3)C1)C2)c1ccccc1 (centres undefined)
x,-0.1%,x,4.3%,CC1CCCCN1C(=O)COC(=O)CNC(=O)c1sc2ccccc2c1Cl (centres undefined)
-7.1%,10.1%,-1.5,4.2%,COCCNC(=O)C(c1ccco1)N(C(=O)Cn1nnc2ccccc21)c1ccc(C)cc1C (centres undefined)
x,2.6%,x,-0.7%,CCN1CCN(S(=O)(=O)c2ccc(Cl)c(C(=O)NC3CCC(C)CC3)c2)CC1 (centres undefined)
-9.2%,14.1%,1.6,-3.6%,COc1c(C)cc(Br)cc1C(=O)NCc1cccnc1
1.8%,-1.0%,-4.1,2.8%,CCN(Cc1ccccc1)S(=O)(=O)c1cc(C(=O)NCCCN(C)C)ccc1OC
4.8%,0.1%,0.8,0.4%,CC1(C)CCCC2=C1CC1C(=O)N(N)C(=O)C1C2 (centres undefined)
-0.2%&3.1%,23.7%,x,-2.2%,Cc1cccc(N(C)C(=O)CN2C(=O)COc3ccc(S(=O)(=O)N4CCCCCC4)cc32)c1
-34.8%,16.2%,2.4,u,COC(=O)c1ccccc1NC(=O)NC1CCC(C)CC1 (centres undefined)
x,-10.0%,x,-1.8%,COc1ccc(-c2c(C#Cc3ccsc3)c3cc(-c4ccc(OC)nc4)ccc3n2C)cc1
4.5%,2.0%,-2.3,-0.5%,Cn1c(=O)c2[nH]c(N3CCN(c4ccccc4)CC3)nc2n(C)c1=O
-36.5%,-6.5%,4.3,2.7%,O=C(CCOc1ccccc1)Nc1ccccc1
1.2%,-7.3%,6.0,0.5%,CC(Nc1ccccc1)c1ccncc1 (centres undefined)
-8.0%,-8.4%,-2.7,0.2%,O=C(CN1CCN(C(=O)c2ccco2)CC1)Nc1ccc2c(c1)OCCO2
-21.7%,4.8%,6.2,2.0%,CC(C)NC(=O)c1ccc(C(C)C)cc1
4.1%,-14.3%,x,0.1%,COc1ccc(NC(=O)CSc2ccc(-c3cccnc3)nn2)cc1
-36.7%,-7.9%,x,3.8%,Cc1cccc(NCc2ccc(Br)cc2)n1
-2.2%,7.7%,2.2,-0.3%,CSc1ncc(F)c(N(CCO)CCO)n1
-4.4%,u,x,-0.7%,CN(CC(=O)Nc1cccc(C(F)(F)F)c1)Cc1ccccc1
-2.8%,-3.3%,0.3,-0.7%,CCn1c(NCc2ccco2)nc2ccccc21
12.1%,5.0%,-14.8,5.8%,Cc1cccc(OCCCCc2c(C)n[nH]c2C)c1C
x,3.6%,x,-1.8%,CC1CC(=O)Nc2ccccc2N1C(=O)CSc1ncnc2sccc12 (centres undefined)
-0.8%,-2.3%,11.6,1.3%,CC(=O)c1cccc(N2C(=O)C3C4CCC(C4=C(C)C)C3C2=O)c1 (centres undefined)
-11.0%,12.3%,0.2,-1.2%,CCOC(=O)c1cnc(SCC(=O)Nc2ccc(NC(=O)CC)c(OC)c2)nc1N
0.0%,-8.8%,3.8,3.7%,Cc1cc(=O)oc(C)c1C(=O)Nc1cccc2nonc12
-10.1%,-0.7%,-8.4,1.1%,Nc1nnc(C2CCCC2)s1
-0.9%,6.1%,6.6,-0.3%,COc1cccc(C2(O)CCN(C(=O)Cc3cccnc3)CC2)c1
x,-0.5%,x,-0.7%,COc1ccc(C(CNS(=O)(=O)c2ccc(F)cc2)N2CCN(C)CC2)cc1 (centres undefined)
-17.7%,-11.9%,x,u,Cc1ccc(NCC(=O)Nc2ccc(Br)cc2)cc1C
3.8%,-0.2%,0.2,3.9%,O=C(CSc1ccsc1[N+](=O)[O-])N1CCCCCC1
1.6%,1.5%,x,3.1%,COc1ccc(Br)cc1/C=C1\Oc2ccccc2NC1=O
-7.0%,-8.4%,-20.9,u,CCOC(=O)c1c(-c2ccc(F)cc2)csc1NC(=O)CCN1CCOCC1
-9.6%,15.2%,3.6,-4.5%,O=C1CC(c2cccc(F)c2)SC(N(c2ccccc2)c2ccccc2)=N1 (centres undefined)

Bioassay records: PubChem, National Center for Advancing Translational Sciences (NCATS)
